High-throughput results (PubChem BioAssay)
CDC25B CDK2 inh = primary biochemical HTRF screen for blockers of M-phase inducer phosphatase 2 binding to CDK2/cyclin A; HTRF CDC25B-CDK2/CyclinA binding, anti-His/anti-Flag; stronger effect = higher value; z-score (concentration not given with the values); 94,000 tested, 0.72% active; AID 1259370, 2018;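 further: score is relative to mean and SD of negative controls; strong numbers were not always called active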
HIV TAR-Tat = TAR RNA-Tat peptide displacers, HIV-1, primary screen, biochemical, FRET, FAM/TAMRA-labeled Tat | AID 1259389, 2018 | HIV-1 TAR RNA, Tat peptide displacement FRET; stronger effect = higher value | 100,000 tested, 0.6% active | z-score (concentration not given with the values);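 further: score is relative to mean and SD of negative controls; some compounds called inactive have numbers as strong as hits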
* marks the source's active call; other numbers are inactive results; nt = not tested or not shown.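 How the source made its calls: active means z-score from 3 up in half or more of its runs; inactive means the rest.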

Results follow in this order: CDC25B CDK2 inh | HIV TAR-Tat
CC1(C)CC(=O)c2cc(-c3nc(-c4ccc(Br)cc4)cs3)c(=O)[nH]c2C1
 : -2.7 | -0.7
Cc1cc(C(=O)N(CCC#N)Cc2cccs2)no1
 : -2.2 | nt
c1cncc(Oc2ncnc3c2oc2ccccc23)c1
 : nt | -0.16
CC1=C(C(=O)OC2CCCCC2)C(c2cccs2)n2nnnc2N1 (configuration not stated)
 : 0.18 | nt
CC(C)(CC(=O)O)C(CCC(=O)O)C(=O)O (configuration not stated)
 : -0.62 | nt
O=C(Cn1c(=O)oc2cc(Cl)ccc21)NC1CCCC1
 : nt | -0.14
O=c1c2sccc2n(Cc2cc(=O)n3ccccc3n2)c(=O)n1-c1ccc(F)c(Cl)c1
 : -0.76 | nt
Cc1[nH]c2ccccc2c1C1(O)C(=O)N(Cc2ccc3c(c2)OCO3)c2ccccc21 (configuration not stated)
 : -1.5 | 0.77
CS(=O)(=O)CCC(C(=O)N1CCc2ccccc21)N1Cc2ccccc2C1=O (configuration not stated)
 : nt | 1.1
COc1cc(C=C(C#N)C#N)ccc1OC(=O)c1cc(OC)c(OC)c(OC)c1
 : -2.1 | nt
COc1ccc(C2/C(=C(\O)c3ccccc3)C(=O)C(=O)N2c2cccc(Cl)c2)cc1OC (configuration not stated)
 : -1.8 | 1.2
COc1ccc(-n2ccn(CC(=O)Nc3ccc4c(c3)OCO4)c2=O)cc1
 : nt | 0.18
Clc1ccc2nc(N3CCc4ccccc43)c3nncn3c2c1
 : -1.7 | 1.6
Cc1c2c(cc3c1oc(=O)c1ccccc13)CN(Cc1ccccc1)CO2
 : -1.8 | -0.77
Cc1cc(=O)nc2c3ccccc3n(CC(=O)NCCCN3CC(C)CC(C)C3)n12 (configuration not stated)
 : -1.2 | -1.8
CC(=O)Nc1nnc(SCc2nc3ccccc3[nH]c2=O)s1
 : nt | 0.84
Cc1csc2nc(COC(=O)c3ccccc3)cc(=O)n12
 : nt | -0.82
C[N+](C)(C)CC(O)CC(=O)[O-] (configuration not stated)
 : nt | 2.4
CN(C)CCNC(=O)c1ccc(CN2CC(=O)N3CCCC3C2=O)cc1 (configuration not stated)
 : nt | 3.1
CC(C)CC(NC(=O)C1CCC(C)CC1)C(=O)Nc1ccc(F)c(Cl)c1 (configuration not stated)
 : -0.03 | -0.75

4 of these compounds, reformatted.
Compound | CDC25B CDK2 inh | HIV TAR-Tat
CC1(C)CC(=O)c2cc(-c3nc(-c4ccc(Br)cc4)cs3)c(=O)[nH]c2C1 | -2.7 | -0.7
Cc1cc(C(=O)N(CCC#N)Cc2cccs2)no1 | -2.2 | nt
c1cncc(Oc2ncnc3c2oc2ccccc23)c1 | nt | -0.16
CC1=C(C(=O)OC2CCCCC2)C(c2cccs2)n2nnnc2N1 (configuration not stated) | 0.18 | nt

(more compounds)
Results follow in this order: CDC25B CDK2 inh | HIV TAR-Tat
Cc1cccc(OCc2nc(-c3ccc(Br)cc3)no2)c1
 : -1.3 | nt
CC1CCC(NC(=O)c2nn(C)c3c2CSc2ccccc2-3)CC1 (configuration not stated)
 : -1.7 | 2.3
Cn1cnc(S(=O)(=O)Oc2ccccc2N2CCCCC2)c1
 : -0.39 | nt
CC(C)NC(=O)N1Cc2c(sc3c2CCCC3)-n2cccc2C1C(C)C (configuration not stated)
 : nt | 0.23
Cn1c(=O)oc2cc(S(=O)(=O)N3CCC(C(=O)N4CC=C(c5ccccc5)CC4)CC3)ccc21
 : -2.1 | 1.7
Cc1nnn(-c2ccccc2)c1C(=O)NC1CC1
 : -2 | 2
O=C(Cn1cnc([N+](=O)[O-])n1)OCCCc1ccccc1
 : -0.85 | 0.22
CCCCC(=O)n1c(=O)oc2cc(Cl)ccc21
 : nt | -4.2
CCOCCCNC(=O)N1CCC(n2nnc3ccccc3c2=O)CC1
 : nt | 1.1
CCOC(=O)c1c(S(=O)(=O)Nc2ccc3c(c2)OCO3)c(C)n(C)c1C
 : nt | 0.32
Cc1cccc(C)c1NC(=O)CCN1CCCCC1
 : -1.8 | nt
Cc1ccc(NS(=O)(=O)c2c(C)nc3sccn3c2=O)c(C)c1
 : -1 | -0.61
CC1=C(C(=O)OCc2ccccc2)C(c2cccc(Cl)c2)NC(=O)N1 (configuration not stated)
 : -0.58 | nt
CCCCN(C)CCNC(=O)c1c(C)oc2ncnc(N3CCOCC3)c12
 : nt | 2.1
CCOc1cc(C2C(C(=O)OCCOc3ccccc3)=C(C)NC3=C2C(=O)CCC3)ccc1O (configuration not stated)
 : -1.7 | 0.93
O=C1CN2Cc3c(ccc(Cl)c3Cl)N=C2N1
 : nt | 2.2
CCCCC1CCC(C(=O)Nc2nnc3n2CCCS3)CC1 (configuration not stated)
 : nt | 0.74
CCc1cc2c(NCCCN3CCN(c4cc(C)ccc4C)CC3)ncnc2s1
 : nt | 0.83
COC(=O)c1ccc(-c2ccco2)n1CC(=O)NCCCN1CCCCC1
 : nt | -3.2
Cc1noc(/C=C/N(C)C)c1S(=O)(=O)N1CCCC(C(=O)NC2CCCC(C)C2C)C1 (configuration not stated)
 : -0.8 | -0.65

By substructure, the entries above containing an aryl methoxy group (3)
Results follow in this order: CDC25B CDK2 inh | HIV TAR-Tat
COc1cc(C=C(C#N)C#N)ccc1OC(=O)c1cc(OC)c(OC)c(OC)c1
 : -2.1 | nt
COc1ccc(C2/C(=C(\O)c3ccccc3)C(=O)C(=O)N2c2cccc(Cl)c2)cc1OC (configuration not stated)
 : -1.8 | 1.2
COc1ccc(-n2ccn(CC(=O)Nc3ccc4c(c3)OCO4)c2=O)cc1
 : nt | 0.18

The list goes on.
Results follow in this order: CDC25B CDK2 inh | HIV TAR-Tat
Cc1ccc(Nc2nc3c(c(=O)n(C)c(=O)n3C)n2C)cc1C
 : -0.82 | nt
COc1ccc(NC(=O)Nc2ccc(OC)c(OC3CCCC3)c2)cc1OC1CCCC1
 : -1.9 | nt
O=C1Nc2ccc(S(=O)(=O)Nc3ccc4oc5c(c4c3)CCCC5)c3cccc1c23
 : -1.9 | 6.3*
COc1ccccc1-c1nn2c(C)nnc2s1
 : 0.73 | -0.43
CC(C)OCCCNC(=O)c1cc2c(s1)-c1ccsc1CC2
 : nt | 1.8
COc1ccc(C2C(C#N)=C(N)Oc3cc(N)ccc32)cc1OC (configuration not stated)
 : -1.9 | -0.05
O=C(c1cccc(-c2nc(-c3ccccc3)no2)c1)N1CCN(C(=O)c2ccco2)CC1
 : nt | 2.2
CCN(CC)S(=O)(=O)c1ccc2c(c1)CC(C(=O)NCCc1c(C)noc1C)N2C(C)=O (configuration not stated)
 : nt | 2
COc1ccc(NC(=O)n2nc(N)cc2-c2ccc(Cl)cc2)c(OC)c1
 : -3.6 | nt
Cc1ccc(-c2csc(-c3nc(-c4cccs4)cs3)n2)cc1
 : nt | 0.01
CC(C)(C)NC(=O)N1CCN(c2cc(C(F)(F)F)ccn2)CC1
 : -2.1 | nt
CCOC(=O)C1CCCN(S(=O)(=O)c2ccc(-c3ccc(=O)[nH]n3)s2)C1 (configuration not stated)
 : nt | -0.84
O=C(Cn1c(=O)n(Cc2ccco2)c(=O)c2oc3ccccc3c21)Nc1ccccc1Cl
 : nt | 1.3
C=C1COC(=O)N1Cc1ccccc1Cl
 : -3.1 | nt
CC(=O)Oc1ccc2ccccc2c1C1=NN(C(C)=O)C(c2ccc(F)cc2)O1 (configuration not stated)
 : nt | 0.32
CCCCN(C)C(=O)C1CCCN(S(=O)(=O)c2ccc3c(c2)oc(=O)n3C)C1 (configuration not stated)
 : -1.1 | 0.37
Cc1ccc(C(=O)CSc2n[nH]c(-c3ccco3)n2)cc1C
 : -4.1 | 15*
Cc1cc2c(cc3c(SCC(=O)Nc4cccc(Cl)c4C)nnc(C)n32)o1
 : nt | -2.2
Cc1cc(C)c2oc(-c3ccc(N)cc3)nc2c1
 : -1.6 | 0.12
CC1CC(=O)Nc2cc(S(=O)(=O)N3CCc4ccccc43)ccc2S1 (configuration not stated)
 : nt | -0.46
CCCc1c(C)nc2ncnn2c1N1CCN(c2ccccn2)CC1
 : -1.8 | 1.3
COC(=O)c1sc(N2CCCC2)c(S(=O)(=O)C(C)C)c1N
 : -1 | nt
CC(C)CCNC(=O)C(C)N1C(=O)CC(C)(C)Sc2ccccc21 (configuration not stated)
 : 1.4 | 0.96
COc1ccc(S(=O)(=O)c2cn(C)c3ccccc3c2=O)cc1
 : -1.2 | -0.48
O=S(=O)(N/N=C/c1ccsc1)c1ccc(Cl)s1
 : -1.7 | nt
CCCN1C(SCC(=O)N(CC)CC)=NS(=O)(=O)c2ccccc21
 : nt | 1.5
COc1ccc(OC)c(C2CC(=O)Nc3c2c(C)nn3-c2nc(C)cc(C)n2)c1 (configuration not stated)
 : -0.36 | 0.01
N#CC1=C2N=C(N)c3ccccc3N2C2=C(C(=O)CCC2)C1c1cccc(Cl)c1 (configuration not stated)
 : 19* | -3.6
Cc1[nH]nc(-c2ccc(S(=O)(=O)Nc3ccc(F)cc3F)s2)c1C
 : nt | 0.23
Cc1ccc(C)c(NC(=O)CSc2nc(=O)n(CCN(C)C)c3c2CCC3)c1
 : nt | 1
COc1ccc(Oc2c(C(F)(F)F)oc3cc(OCC(=O)O)ccc3c2=O)cc1
 : -2 | nt
O=C(c1ccc(Cl)cc1)N1CCC(C(F)(F)F)CC1
 : -1.4 | nt
Cc1ccc2nc(NC(=O)CSc3ccc(-c4ccncc4)nn3)sc2c1
 : nt | 1.1
C=CCSc1nc2c(c(=O)[nH]1)C(c1ccc(F)cc1)C(C(=O)OC(C)C)=C(C)N2 (configuration not stated)
 : -0.55 | 0.76
CC1CCN(S(=O)(=O)c2ccc3nc(Nc4ccc(F)cc4)ccc3c2)CC1
 : nt | 1.2
CCc1nn(C(C)C(=O)N2CCc3ccccc3C2)c(=O)c2cc3occc3n12 (configuration not stated)
 : 0.49 | 1.5
Cc1nnc(NC(=O)CSc2nccn2-c2ccc(Cl)cc2)s1
 : -2.2 | nt
CC(C)CC1N=C2c3ccccc3N=C(SC(C)C(=O)NCc3ccccc3)N2C1=O (configuration not stated)
 : nt | 0.24
O=C(Nc1ccc(F)cc1F)c1cnc2sc3c(n2c1=O)CCCC3
 : nt | 0.71
CC1=CC(C)(C)N(Cc2ccccc2)c2ccccc21
 : -1.3 | -1.2
Cn1nccc1NC(=O)c1ccccc1C(=O)O
 : -2 | nt
Cc1c(C(=O)O)oc2ccc3c(c12)C(O)CC1(CCCC1)O3 (configuration not stated)
 : -0.57 | 1.1
CN(CCNC(=O)c1nn(C)c2c1CSc1ccccc1-2)Cc1ccccc1
 : -4.1 | 1.9
Cc1cccc(OCc2cc(=O)n3oc(C)cc3n2)c1
 : -2 | 0.09
Oc1[nH]c2ccc(F)cc2c1N=NC(=S)NC1CC2C=CC1C2 (configuration not stated)
 : -0.79 | nt
O=c1cc(CO)oc(C(Nc2ccccn2)c2ccccc2O)c1O (configuration not stated)
 : -0.15 | nt
Cc1cc(C)cc(-n2ccnc(SCc3ccc(F)cc3)c2=O)c1
 : nt | 0.16
COc1c(CO)cc(CO)cc(CO)c1=O
 : -1.2 | -2.1
NC(=O)Cn1cnc2c(nnn2Cc2ccc(Cl)cc2)c1=O
 : 0.53 | 0.84
Clc1ccc(-c2nc3ncccn3c2NCc2ccccc2)cc1
 : nt | -0.2
C(=C\c1nn2c(-c3ccco3)nnc2s1)/c1cccs1
 : -1 | 1.7
CC1CCCCN1c1nc2c(S(=O)(=O)c3ccccc3)nnn2c2ccccc12 (configuration not stated)
 : 0.11 | -0.38
Cc1[nH]c(=O)[nH]c(=O)c1S(=O)(=O)N1CCCC(C(=O)NCc2ccco2)C1 (configuration not stated)
 : 2.6 | 2
COC(=O)c1sc(=S)n(-c2ccc(Br)cc2)c1N
 : nt | 2.4
CN(Cc1ccco1)C(=O)c1c2c(nc3ccccc13)C(=O)N(C1CCCCC1)C2
 : nt | 0
CCOC(=O)CCc1c(C)nc2c(-c3ccc(F)cc3)c(C)[nH]n2c1=O
 : -0.25 | 0.6
COc1cc(Cl)c(C)cc1Nc1c2c(nc3ncnn13)CCC2
 : nt | -0.57
CCOCCOc1ccc2oc(C(=O)CC(=O)OCC)cc(=O)c2c1
 : -1.1 | nt
CCCc1nc2nc(C)cc(Cl)n2n1
 : 1 | 0.57
COc1ccccc1N1CC(C)(C)C(=O)NC1=S
 : 0.79 | nt

Some of the entries so far, as tab-separated lines.
SMILES	CDC25B CDK2 inh	HIV TAR-Tat
COc1cc(Cl)c(C)cc1Nc1c2c(nc3ncnn13)CCC2	nt	-0.57
CCOCCOc1ccc2oc(C(=O)CC(=O)OCC)cc(=O)c2c1	-1.1	nt

(further entries)
Results follow in this order: CDC25B CDK2 inh | HIV TAR-Tat
COc1ccc(S(=O)(=O)Nc2ccc(N3CCCS3(=O)=O)cc2)cc1OC
 : nt | 1.3
COc1ccc(-c2nc(=S)c3c([nH]2)Oc2ccccc2C3)cc1O
 : 10* | 1.3
CCOC(=O)C1CCCN(c2c(S(=O)(=O)c3ccc(Cl)cc3)cnc3ccc(F)cc23)C1 (configuration not stated)
 : -1.6 | -1.4
Oc1ccccc1C/C=C/c1ccccc1
 : -2 | -0.47
Cc1ccc(C(=O)CSc2nc(-c3ccc(C)cc3)c(C#N)c(=O)[nH]2)cc1
 : -0.18 | -0.05
CCN1CCN(c2cc(=O)n3c(n2)SCCC3)CC1
 : 0.28 | 0.68
Cc1cccc(OCc2ccc(-c3nc(C#N)c(NCCN(C)C)o3)o2)c1
 : -0.26 | 0.49
COc1ccc(NC(=O)Nc2c(C3=CCCCC3)c(C)nn2C)cc1OC
 : -2.1 | -0.71

No enrichment for hits; 0.87% or so of the library scored in one or more.
